MT1-MMP reporter = MT1-MMP gene expression reporter suppression – cell-based, luciferase reporter, luminescence (AID 618); MT1-MMP promoter luciferase reporter cells, luminescence; calls from a first round at 10 µM; hits with a dose series show EC50 in µM; actives 0.62% (n = 87,000);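 active = over half of the reporter light lost at 10 µM or EC50 under 50 µM; inactive = the rest and hits that failed the dose series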;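 also: actives suppress MT1-MMP promoter-driven transcription so potencies describe inhibitors; HT1080 fibrosarcoma cells; overnight exposure; toxic or luciferase-blocking compounds were not removed from the actives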
Hsc70 ATP site = small molecules displacing fluorescent ligand from Hsc70 – biochemical, fluorescence polarization, primary screen (AID 568); 83,000 tested, under 10 active; displacement, % at 20 µM; hits with a dose series show IC50 in µM; Hsc70 fluorescence polarization, probe displacement; higher % means a stronger effect; strong numbers were not always called active;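 active = displacement above 50% without optical interference and an IC50 on retest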;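 also: ATPase domain with a fluorescein-tagged ATP probe; 0% = vehicle and 100% = excess ADP; read after one hour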
WNV protease inh = WNV NS2B-NS3 proteinase inhibition; WNV NS2B-NS3 protease, fluorogenic substrate Ex360/Em465; stronger effect = lower value; z-score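 (tested at a level between 10 and 100 µM)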; actives 0.18% (n = 65,000);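 active = z-score at -3 or under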;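 also: score is relative to mean and spread of the compound wells of a plate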
Target sequence (P06935 1371-1501 limits assumed): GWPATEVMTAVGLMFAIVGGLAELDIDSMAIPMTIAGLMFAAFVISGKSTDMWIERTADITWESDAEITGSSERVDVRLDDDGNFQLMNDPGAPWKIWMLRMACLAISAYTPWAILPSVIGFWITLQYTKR
Target sequence (P06935 1502-1679 limits assumed): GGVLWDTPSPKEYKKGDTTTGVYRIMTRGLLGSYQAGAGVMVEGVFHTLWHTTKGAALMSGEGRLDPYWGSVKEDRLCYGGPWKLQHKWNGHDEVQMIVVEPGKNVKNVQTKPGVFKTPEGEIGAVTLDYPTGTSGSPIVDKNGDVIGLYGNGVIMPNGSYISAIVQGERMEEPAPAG
* hit, by the source's call; i = inactive; . = no result given; + = active, no number.

SMILES,MT1-MMP reporter,Hsc70 ATP site,WNV protease inh
COc1ccc(CNC(=O)c2cc(-c3ccccc3OC)on2)cc1,i,-6.0%,-0.09
Cn1c(/C(C#N)=C/Nc2ccccn2)nc2ccccc21,i,2.8%,1.04
CC(C)c1ccc(-c2c(C#N)c(N)nc(SCC(=O)N3CCCCCC3)c2C#N)cc1,i,-4.1%,.
Cc1ccc(N2C(=O)[C@@H]3[C@H](C2=O)[C@H]2C=CC=NN2[C@@H]3C(=O)Nc2ccc(Cl)cc2)cc1,i,2.7%,.
c1nc2sc3c(c2c2nnnn12)CCC3,i,3.6%,2.06
Fc1cc(F)c2nc(N3CCCCC3)sc2c1,i,5.8%,-0.08
CCc1nc(SCC(=O)N2CCN(C(=O)c3ccco3)CC2)c2c3c(sc2n1)CCCC3,i,-5.3%,-0.74
CCOC(=O)c1cc(NC(=O)CSc2nnc(CN3CCOCC3)n2C)ccc1Cl,i,2.0%,.
Cc1ccc(C(=O)c2ccc([N+](=O)[O-])cc2)cc1,i,1.7%,.
CCc1nnc(SCc2ccc(OC(C)C)cc2)n1N,i,135.9%,0.03
CN(C(=O)c1ccc(C(=O)N(C)C2CCCCC2)cc1)C1CCCCC1,i,1.6%,.
Cc1cc(C(=O)Nc2nnc(C3CCCCC3)s2)no1,i,-1.0%,1.11
CCOC(=O)C(C)Oc1ccc(=O)n(-c2ccccc2)n1 (centres undefined),i,-5.2%,0.28
O=C(Nc1nnc(-c2ccccc2)s1)c1cc(S(=O)(=O)N2CCOCC2)c(Cl)cc1Cl,i,-0.3%,.
Cc1cc(NC(=O)CSc2ccc3nnc(-c4cccc(F)c4)n3n2)no1,i,4.0%,1.66
O=C(Nc1cccc(NS(=O)(=O)c2ccc(S(=O)(=O)NC3CC3)cc2)c1)c1ccccn1,i,-6.5%,-0.37
CCn1nnnc1SCC(=O)c1ccc(NC(C)=O)cc1,i,31.3%,-0.77
COc1ccccc1C1/C(=C(\O)c2c(C)nc3c(C)cccn23)C(=O)C(=O)N1CCCN(C)C (centres undefined),i,-3.9%,-0.48
COc1ccc(CCNC(=O)CCn2cccc2)cc1OC,i,-4.9%,-0.78
COc1ccc(S(=O)(=O)Nc2ccccc2C(=O)NCc2ccco2)cc1,i,4.2%,1.52
O=c1cc(Nc2ccc3c(c2)OCO3)[nH]c(=O)n1-c1ccc(Br)cc1,i,0.0%,-0.46
OCC(C#CCN1CCCCC1)NCc1ccccc1 (centres undefined),i,-2.1%,-0.96
COc1ccc2[nH]c(C(=O)O)c(NS(=O)(=O)c3ccc(Cl)s3)c2c1,i,-2.6%,0.48
Cc1[nH]c2ccc(F)cc2c(=O)c1SC(F)(F)C(F)C(F)(F)F (centres undefined),i,3.9%,-0.000388
CC(C)OC(=O)C1C2C=CC3(CN(CC4CCCO4)C(=O)C13)O2 (centres undefined),i,2.2%,-0.83
CC(C)c1ccc(Nc2cnn(C34CC5CC(CC(CC(=O)O)(C5)C3)C4)c(=O)c2Cl)cc1,i,-3.3%,.
COc1ccc(NC(=O)N2CCC(n3nnc4cc(C)ccc43)CC2)cc1,i,-1.3%,.
Clc1ccccc1CN(Cc1ccccc1)c1ncnc2nc[nH]c12,i,-1.8%,0.89
Nc1nc(SCc2ccc(Cl)cc2)ns1,i,-5.6%,-0.69
CC(C)[C@H](NC(=O)NC1CCCc2ccccc21)C(=O)O (some centres undefined),i,-1.6%,-0.55
COc1ccc(OC)c(Nc2ncnc3c2cnn3-c2cccc(C)c2)c1,i,1.8%,0.5
CC(=O)N(Cc1cccs1)C1CCOC(C)(C)C1 (centres undefined),i,3.0%,0.1
COc1ccc(-c2nc3c4ccccc4[nH]c(=O)n3n2)cc1,i,1.4%,.
COc1ccccc1N1CCN(C(=O)Cn2nc(C(F)(F)F)c3c2CCC3)CC1,i,-2.6%,0.43
CCOC(=O)Cn1nnnc1C(C(C)C)N(Cc1cccs1)Cc1cc2cc(C)ccc2[nH]c1=O (centres undefined),i,-1.5%,.
CN(C)c1ccc(/C=N/n2ncc3ccccc32)cc1,+,1.0%,-0.72
COC(=O)c1ccc(NC(=O)CSc2n[nH]c(-c3ccncc3)n2)cc1,i,-8.0%,-1.16
Cn1c(NC(=O)c2ccc3c(c2)OCO3)cc(=O)n(C)c1=O,i,1.5%,-0.21
COc1ccc(-c2nn(C)c(=O)c3ccccc23)cc1CNC(=O)CN1CCOCC1,i,-8.4%,-0.63
CC(Oc1ccccc1)C(=O)Nc1nc2c(s1)C(=O)CC(C)(C)C2 (centres undefined),i,-3.2%,.
CCCCNS(=O)(=O)c1ccc2nc(SCC(=O)Nc3sccc3C#N)[nH]c2c1,i,-20.1%,1.28
COc1ccc(N(C(=O)C(C)C)S(=O)(=O)c2ccc3c(c2)n(C)c(=O)n3C)cc1,i,-0.5%,0.37
COC1(OC)N=C(N)C2(C#N)C(c3cccc(Oc4ccccc4)c3)C12C#N (centres undefined),i,4.2%,0.11
O=C(COc1ccc(Cl)cc1)NCCSc1ccccc1,i,5.9%,.
CCCn1c(-c2cccs2)nc2nc3ccccc3nc21,i,-2.4%,.
O=C(CCc1ccc(S(=O)(=O)NCc2ccccc2)cc1)N1CCN(Cc2ccc3c(c2)OCO3)CC1,i,-0.7%,.
CCOc1ccc(C(=O)NC2CCN(C(=O)NCc3ccccc3)CC2)cc1,i,-0.9%,1.36
Cc1onc(-c2ccccc2)c1C(=O)Nc1ccc(S(=O)(=O)N2CCCCC2)cc1,i,0.0%,-0.15
Cn1nnc(NC(=O)c2ccccc2)n1,i,-3.5%,.
COC(=O)c1ccc(NC2(C#N)C(=O)Nc3ccccc32)cc1 (centres undefined),i,-3.1%,-0.97
COc1ccc(-n2c3c(cc(C(=O)NC4CCSC4=O)c2=O)C(=O)CC(C)(C)C3)cc1 (centres undefined),i,3.9%,0.39
O=C(C1CCN(S(=O)(=O)c2cccc3cccnc23)CC1)N1CCN(C2CCCCC2)CC1,i,5.9%,-1.3
CCC(=O)N[C@@H]1CC(C(C)(C)NC(=O)CC)CC=C1C (some centres undefined),i,-4.5%,-0.57
COc1cc(OC)cc(C(=O)N2CCC(N3CCCCCC3)CC2)c1,i,1.6%,0.54
CC1(C)CC(O)(CCNCc2ccc3c(c2)OCO3)CCO1 (centres undefined),i,-0.1%,.
Cc1cc(C)n(C(=O)CNC(=O)C2COc3ccccc3O2)n1 (centres undefined),i,3.6%,0.45
O=C(CSc1nnc(-c2cccnc2)n1Cc1ccco1)c1ccc(Br)cc1,i,-3.6%,-0.71
COc1ccccc1NC(=O)CN1C(=O)NC(CC(C)C)C1=O (centres undefined),i,0.1%,-0.54
CCN(CC)S(=O)(=O)c1cccc(-c2nnc(SCc3ncc(-c4ccccc4)o3)n2C)c1,i,-4.5%,1.1
Cn1c(=N)c(S(=O)(=O)c2ccc(Cl)cc2)cc2c(=O)n3ccccc3nc21,i,-15.7%,-0.81

The last seven compounds of the section before open the next one:
SMILES,MT1-MMP reporter,Hsc70 ATP site,WNV protease inh
COc1cc(OC)cc(C(=O)N2CCC(N3CCCCCC3)CC2)c1,i,1.6%,0.54
CC1(C)CC(O)(CCNCc2ccc3c(c2)OCO3)CCO1 (centres undefined),i,-0.1%,.
Cc1cc(C)n(C(=O)CNC(=O)C2COc3ccccc3O2)n1 (centres undefined),i,3.6%,0.45
O=C(CSc1nnc(-c2cccnc2)n1Cc1ccco1)c1ccc(Br)cc1,i,-3.6%,-0.71
COc1ccccc1NC(=O)CN1C(=O)NC(CC(C)C)C1=O (centres undefined),i,0.1%,-0.54
CCN(CC)S(=O)(=O)c1cccc(-c2nnc(SCc3ncc(-c4ccccc4)o3)n2C)c1,i,-4.5%,1.1
Cn1c(=N)c(S(=O)(=O)c2ccc(Cl)cc2)cc2c(=O)n3ccccc3nc21,i,-15.7%,-0.81
COc1cc(NC(=O)c2nnn(Cc3ccc(SC)cc3)c2N)cc(OC)c1,i,6.2%,0.53
O=C(CSc1nc(Nc2ccccc2)nc(N2CCOCC2)n1)N1CCc2ccccc21,i,-0.8%,-0.86
O=C(Cn1nc(-c2ccc(Cl)cc2)c2ccccc2c1=O)Nc1cccnc1,i,-3.3%,.
COC(=O)c1ccccc1S(=O)(=O)C(C)(C)C,i,-4.4%,.
Cc1cccn2cc(CCNC(=O)c3ccc(Br)o3)nc12,i,2.3%,1.09
COc1cccc(NC(=O)CSCC(=O)O)c1,i,2.2%,.
CCOc1ccc(CN2CCN(C(=O)c3cccc(F)c3)CC2)cc1,i,1.3%,.
O=C(Nn1c(=O)[nH]c2ccsc2c1=O)c1ccccc1,i,1.1%,-1
Cc1ccc(CN2CCN(C(=O)CCN3C(=O)c4ccccc4C3=O)CC2)cc1,i,-1.5%,-0.39
C=CCNc1ncnc2c1[nH]c1ccc(Cl)cc12,i,-2.0%,.
CCC(=O)Oc1c(-c2ccccc2)c2nc3ccccc3nc2c2ccccc12,i,26.7%,.
COCCN1C(=O)C(CC(=O)Nc2ccc(C(=O)O)cc2)SC1=Nc1ccccc1 (centres undefined),i,-2.2%,0.39
Cc1nc(NC(C)C(=O)O)c2nc(C)oc2n1 (centres undefined),i,-4.3%,-0.07
COCCN1C=C(C(=O)OC)C(c2cc(Br)c(OC)c(OC)c2)C(C(=O)OC)=C1,i,-0.1%,0.52
O=C(COC(=O)c1ccco1)Nc1cccc(Br)c1,i,-1.9%,-0.99
COc1ccc(S(=O)(=O)Nc2cccc(Cl)c2)cc1OC,i,-2.8%,-1.27
O=C(O)CSc1nnc(Cn2cnc3ccccc32)n1CCc1ccccc1,i,-0.1%,0.31
O=C(c1ccco1)N1CCN(CC(O)Cn2c3ccccc3c3ccccc32)CC1 (centres undefined),i,-4.9%,1.49
COc1ccccc1-c1nnc(SCC(=O)c2ccc(C3CCCCC3)cc2)n1Cc1ccco1,i,-3.1%,.
COc1ccc(N(C)C(=O)c2cnc(N3CCN(c4ncccn4)CC3)c3ccccc23)cc1,i,-0.9%,.
CCOC(=O)c1ccc(NCc2ccc3c(c2)OCO3)cc1,i,-2.8%,1.69
O=C(c1ccco1)N1CCCN(C(=O)c2ccco2)CC1,i,-0.3%,1.27
OC(Cn1cncn1)c1ccc(Cl)cc1 (centres undefined),i,-3.6%,0.3
O=C(Nc1ncc(Cc2cccc(Cl)c2)s1)C1CCCO1 (centres undefined),i,1.7%,.
CCN(CC)S(=O)(=O)c1ccc(Cl)c(C(=O)Nc2nncs2)c1,i,0.6%,-0.34
Cc1ccc2oc(-c3ccc(NC(=O)c4cccnc4)cc3)nc2c1,i,-1.6%,1.06
CCC(c1nnnn1Cc1ccccc1)N(Cc1ccco1)Cc1cc2cc(OC)ccc2[nH]c1=O (centres undefined),i,2.0%,-1.71
O=C(O)C1CCCCC1C(=O)Nc1cccc2ccccc12 (centres undefined),i,2.1%,.
CCCCOC(=O)C(C#N)c1nc2ccccc2nc1N1CCOCC1 (centres undefined),i,-2.0%,1.1
CC(=O)ON1C(C)(C)CC(OC(=O)c2ccccc2)CC1(C)C,i,-1.8%,-0.84
COC(=O)CSC1=C(C#N)C(c2ccc(F)cc2)CC(=O)N1 (centres undefined),i,6.9%,0.19
COC(=O)[C@H](C)NC(=O)Nc1ccc(OC(F)(F)F)cc1,i,3.1%,0.04
CCOc1ccc(S(=O)(=O)N(C)CCO)cc1-c1nc2c(C(C)(C)C)nn(C)c2c(=O)[nH]1,i,5.1%,-0.46
CCOC(=O)CSc1nc2ccccc2c(=O)n1C1CCCC1,i,-1.1%,0.86
CC1(C)NC(=O)N(CCCCOc2ccc3ccccc3c2Cl)C1=O,i,0.3%,.
CN(CC(=O)NCc1ccc(Cl)cc1)S(=O)(=O)c1cccc2nsnc12,i,1.5%,-0.59
CCCCn1c(=O)n(CC(=O)Nc2c(CC)cccc2CC)c(=O)c2c1nc(CO)n2CCC,i,-5.2%,-1.22
COc1ccc(C(=O)C(c2ccccc2)N2CCOCC2)cc1 (centres undefined),i,-1.4%,0.35
CCN(CC)C(=O)Nc1cnc2ccccc2c1,i,-5.8%,-1.03
CCN(C(=O)c1c(OC)cccc1OC)c1nnc(-c2cccnc2)s1,i,-2.4%,-0.4
COc1cccc(-c2nnc3n2N=C(C(C)(C)C)CS3)c1,i,2.3%,-0.99
CCCCn1c(=N)n(CC(O)COc2ccccc2)c2ccccc21 (centres undefined),i,-4.7%,0.39
